Vaccinia Venus = qHTS for Stage-Specific Inhibitors of Vaccinia Orthopoxvirus: Venus Reporter Primary qHTS; hit rate 0.46% among 330,000; Potency, µM (titrated, usually from 36.5 µM), inactives show at the top dose activity change, negative = inhibition, most hits filed as inhibitors; Vaccinia virus Venus reporter expression, fluorescence; active means well fitted inhibition curve with a large enough effect; inconclusive means small, poorly fitted or top-dose-only effect; inactive means no such curve, though single readings can be large or run the other way; tested in A549 cells; also: nearly all actives have a fitted effect of over 30% in size; inactives centre near -10
Vaccinia mCherry = qHTS for Stage-Specific Inhibitors of Vaccinia Orthopoxvirus: mCherry Reporter Primary qHTS. Vaccinia virus mCherry reporter infection, fluorescence; about a quarter of the inactives have no number. hit rate 0.63% among 310,000. Potency, µM (series often up to 36.5 µM), for inactives: at the top dose activity change, negative = inhibition, usual class: inhibitors. AID 720579, 2013; active = well fitted inhibition curve with a large enough effect; inconclusive = small, poorly fitted or top-dose-only effect; inactive = no such curve, though single readings can be large or run the other way; tested in A549 cells; also: nearly all actives have a fitted effect of over 35% in size; inactives centre near -10
Numbers without * were called inactive; i = inactive; u = inconclusive; x = not tested or not shown; & = joins results of further samples; [ ] = remark or other dose. % is scaled to controls: 0 for no effect and ±100 for the full control effect; potency is read from the fitted curve at half-maximal effect.

SMILES | Vaccinia Venus | Vaccinia mCherry
COc1cccc(CNC(=O)Cn2ncc3c4ccccc4n(Cc4ccccc4)c3c2=O)c1 | -2% | -9%
CC(C)CNC(=O)CN1C(=O)NC2(CCCc3ccccc32)C1=O (stereo not drawn) | -13% | i
O=C(NCc1ccco1)c1cccs1 | 11% | x
Cc1ccccc1N1CC(c2nc3ccccc3n2CCC2CCCCC2)CC1=O (stereo not drawn) | u | -10%
O=C(NCCCc1nc2ccccc2n1Cc1ccccc1F)c1ccco1 | -6% | -8%
Cc1cc(OCCN2CCC(Cc3ccccc3)CC2)ccc1[N+](=O)[O-] | u | -16%
CC(C)(C)OC(=O)NN1CC(=O)N2[C@@H](Cc3c([nH]c4ccccc34)C2(C)C)C1=O | -6% | -25%
Cc1ccc(S(=O)(=O)Oc2ccccc2)cc1 | -4% | i
O=C(O)CC/C(=N\Nc1ccc(Cl)cc1)c1cccs1 | -6% | -7%
CCC1CCCCN1C(=O)C(=O)c1cn(CC(=O)N(CC)CC)c2ccccc12 (stereo not drawn) | 0% | i
CCCc1cc(C(=O)N(C2CCCCC2)C2CCCCC2)no1 | -14% | i
COC(=O)C1CCCN1C(=O)C12CC3CC(CC(C3)C1)C2 (stereo not drawn) | -5% | -5%
Cc1nn(CC(=O)Nc2ccc3c(c2)nc(CN2CCCC2)n3C)c(=O)c2ccccc12 | -9% | -10%
C[C@@H]1CN([C@H](C)CO)S(=O)(=O)c2ccc(C#C[C@@H](C)O)cc2O[C@@H]1CN(C)Cc1ccc(-c2ccccc2)cc1 | u | -23%
CC(=O)c1ccc(NC(=O)C(C)N2CCN(C/C=C/c3ccccc3)CC2)cc1 (stereo not drawn) | -9% | -11%
CC(=O)Nc1ccc(-n2nnnc2SCC(=O)N2CCN(C(=O)c3ccco3)CC2)cc1 | -5% | -8%
O=C(CN1CCCCCC1)N/N=C/c1cccc(Cl)c1 | -5% | i
O=C(Nc1ccccc1-c1nc2ccccc2[nH]1)c1ccc(N2C(=O)CCC2=O)cc1 | -21% | -8%
Cc1ccsc1/C=C1\Oc2cc(O)ccc2C1=O | -14% | -13%
COC(=O)c1ccc(N2CCN(C(C)=O)CC2)c(NC(=O)c2cccnc2)c1 | -7% | i
CC(C)(C)C(=O)NC1CC(=O)N(c2ccc3c(c2)OCCO3)C1 (stereo not drawn) | -4% | -3%
Cc1cccc(NC(=O)c2cnn(-c3ccccc3)c2-n2cccc2)c1C | -20% | -7%
CCOC(=O)c1cc2occc2n1CC(=O)NC1CCC(C)CC1 (stereo not drawn) | 0% | i
OCC[C@@H]1C[C@@H](O)[C@H](O)[C@]2(CCc3ccccc3CO2)O1 | -7% | i
CCN(CC(=O)NCc1cccs1)C(=O)c1ccc(OC)c(OC)c1 | -23% | -5%
Cc1ccccc1-c1nc(CS(=O)(=O)CC(=O)Nc2c(C)cccc2C)c(C)o1 | -20% | -21%
S=C(NCCc1ccncc1)Nc1cccc2ccccc12 | -1% | -1%
COC(=O)C1=C(C(=O)OC)[C@@H]2Nc3ccccc3[C@@]23C[C@@H](C(=O)OC)N(C(=O)C2CCC2)C3=N1 | -25% | i
CCn1c(SCC(=O)NNC(=O)c2ccc(C)cc2)nnc1-c1ccco1 | -18% | -7%
CN1CCN(C(=O)/C=C/c2ccc(Cl)c(Cl)c2)CC1 | -7% | -13%
CC(=O)Nc1ccc(-c2ccnc3c2CC(C(=O)Nc2cccc(C(C)=O)c2)O3)cc1 (stereo not drawn) | -8% | i
O=C(OCc1ccccc1)N1CCC2CC1c1ccc(Cl)cc12 (stereo not drawn) | -18% | -15%
Cc1ccc(C)c(CC(=O)N2CCCCC2c2cc(C(=O)Nc3cccc(C#N)c3)no2)c1 (stereo not drawn) | 11% | i
CCc1ccccc1N(CC)C(=O)CCc1nc(-c2ccc(C)cc2)no1 | -25% | x
COc1cccc(NC(=O)N(C)C[C@H]2OCc3cnnn3CCCC(=O)N([C@H](C)CO)C[C@@H]2C)c1 | -22% | -9%
COC(=O)c1cccc(NC(=O)c2cc3sccc3n2C)c1 | -11% | i
COc1ccc2c(c1)c(C(O)CN1CCN(Cc3ccc4c(c3)OCO4)CC1)c(C)n2C (stereo not drawn) | -21% | -18%[1.46 µM]
CCOC(=O)Cc1csc(NC(=O)c2ccc(S(=O)(=O)N3CCOCC3)cc2)n1 | -11% | -4%
CCc1ccccc1Nc1nc(N)nc(CSCC(=O)c2cc(C)n(C)c2C)n1 | -21% | -24%
O=C(Nc1nnc(SCC(=O)N2CCCc3ccccc32)s1)c1cccc2ccccc12 | -14% | -15%
Cc1nnc2ccc(N3CCN(C(=O)c4ccccc4)CC3)nn12 | -1% | 8%
Cc1c(C(=O)N2CCCC2)sc2ncnc(NCCc3ccccn3)c12 | -8% | -13%
O=C(O)c1ccc(NS(=O)(=O)c2ccc3c(c2)C2C=CCC2C(c2ccccc2F)N3)cc1 (stereo not drawn) | 6% | -16%
COc1cc(-c2nc3sccn3c2Nc2c(C)cccc2C)ccc1O | 0% | 2%
Cc1ccc(S(=O)(=O)N2CCN(C(=O)Cn3c(=O)cnc4ccccc43)CC2)c(C)c1 | -24% | u

Part of the list above in order of SMILES length, descending:
SMILES | Vaccinia Venus | Vaccinia mCherry
COc1cccc(NC(=O)N(C)C[C@H]2OCc3cnnn3CCCC(=O)N([C@H](C)CO)C[C@@H]2C)c1 | -22% | -9%
O=C(O)c1ccc(NS(=O)(=O)c2ccc3c(c2)C2C=CCC2C(c2ccccc2F)N3)cc1 (stereo not drawn) | 6% | -16%
Cc1ccc(C)c(CC(=O)N2CCCCC2c2cc(C(=O)Nc3cccc(C#N)c3)no2)c1 (stereo not drawn) | 11% | i
CCc1ccccc1N(CC)C(=O)CCc1nc(-c2ccc(C)cc2)no1 | -25% | x
Cc1c(C(=O)N2CCCC2)sc2ncnc(NCCc3ccccn3)c12 | -8% | -13%
Cc1nnc2ccc(N3CCN(C(=O)c4ccccc4)CC3)nn12 | -1% | 8%
COC(=O)c1cccc(NC(=O)c2cc3sccc3n2C)c1 | -11% | i

(continued)
SMILES | Vaccinia Venus | Vaccinia mCherry
COc1cc(CC(=O)NC2CCCc3ccccc32)cc(OC)c1OC (stereo not drawn) | 0% | i
CCn1c(SCC(=O)NCCc2ccccc2)nnc1-c1ccco1 | -8% | x
CCOc1ccccc1CNC(=O)Cn1ncn2nc(-c3cccs3)cc2c1=O | -9% | -11%
O=C(NC1CCCCC1)Nn1c(-c2ccccc2)nc2ccccc2c1=O | -8% | -1%
Cc1noc(C)c1CSc1nc2ccccc2s1 | u | x
Cn1c(COc2ccc3ccccc3c2)nnc1SCC(=O)OC1CCCCC1 | -7% | x
CCc1nc2ccc(C(=O)NCc3ccccc3OC)cn2c1N(C=O)CCC(C)C | -3% | -13%
CC(C)(C)C1CCC2(CC1)NC(CO)(CO)CO2 (stereo not drawn) | -9% | x
O=c1onc(-c2c(F)cccc2F)n1-c1ccccc1Cl | -15% | -28%
CC(OC(=O)CN1C(=O)C2CC=CCC2C1=O)C(=O)Nc1ccc(F)cc1Cl (stereo not drawn) | -8% | -10%
CSc1nc(C)cc(C)c1S(=O)(=O)c1ccccc1C | u | x
COC(=O)c1nn(-c2cccc(C)c2)c2nnc(Cc3ccc(C)cc3)c(=O)n12 | -4% | i
CC(C)c1ccc(NC(=O)Cn2cc(S(=O)(=O)N3CCN(c4ccccc4F)CC3)c3ccccc3c2=O)cc1 | -8% | -4%
COc1cccc(NC(=O)NC2CCN(CC(=O)Nc3ccccc3[N+](=O)[O-])CC2)c1 | -11% | i
COc1ccc(-c2noc(CCC(=O)NCCN3CCN(c4ccccc4F)CC3)n2)cc1 | -25% | x
Cc1ccc(NC(=O)CN(c2ccccc2)S(=O)(=O)N(C)C)cc1C | -6% | x
COc1ccc(Cl)cc1NC(=O)c1cc(S(=O)(=O)N2CCc3ccccc32)cn1C | -8% | -8%
CCCCOc1ccc(C(=O)C(CN2CCOCC2)c2ccccc2)cc1 (stereo not drawn) | u | 16µM*
O=C(Nc1ccc(Br)cc1)C1CCN(c2ncccn2)CC1 | -6% | -4%
COc1ccc(C(=O)NCC(c2cccnc2)N2CCc3ccccc32)cc1 (stereo not drawn) | u | -27%
C=C(C)Cn1c(C2CC(=O)N(c3ccccc3F)C2)nc2ccccc21 (stereo not drawn) | -3% | 0%
CCN1C(=O)c2ccccc2S(=O)c2ccc(C(=O)NCc3ccccn3)cc21 (stereo not drawn) | -14% | i
Cn1c(C(F)(F)F)nc2c(=O)oc3ccccc3c21 | -5% | -2%
CC(C)(C)C1C=C(Sc2ccccc2)C(=O)O1 (stereo not drawn) | -19% | -10%
CCC(O)(CC)C(=O)N=Nc1c(O)[nH]c2ccccc12 | -10% | i
COc1ccc(C)cc1N(C)C(=O)c1c2c(nc3ccccc13)C(=O)N(C1CCCCC1)C2 | -16% | -18%
O=C(NNC(=O)c1sccc1-n1cccc1)c1ccccc1 | -8% | i
Cc1nc2sc(C(c3ccco3)N3CCN(c4ccccc4F)CC3)c(O)n2n1 (stereo not drawn) | -12% | i
COc1cc(NC(=O)C2CCC(CNc3c(N4CCC(C)CC4)c(=O)c3=O)CC2)cc(OC)c1 (stereo not drawn) | u | -13%&-22%
O=C1c2ccccc2C(O)N1Cc1ccc2c(c1)OCO2 (stereo not drawn) | -2% | i

Record cards, from the list above. Values in the order: Vaccinia Venus	Vaccinia mCherry
`CCOC(=O)c1cc2occc2n1CC(=O)NC1CCC(C)CC1` (stereo not drawn) in the list: 0%	i
`O=C(CN1CCCCCC1)N/N=C/c1cccc(Cl)c1` in the list: -5%	i
`Cc1ccc(C)c(CC(=O)N2CCCCC2c2cc(C(=O)Nc3cccc(C#N)c3)no2)c1` (stereo not drawn) in the list: 11%	i
`COc1cccc(CNC(=O)Cn2ncc3c4ccccc4n(Cc4ccccc4)c3c2=O)c1` in the list: -2%	-9%
`CCn1c(SCC(=O)NCCc2ccccc2)nnc1-c1ccco1` in the list: -8%	x

Following part:
SMILES | Vaccinia Venus | Vaccinia mCherry
CCc1ccc(NC(=O)c2cc(CC(C)C)on2)cc1 | -11% | -10%
COc1cccc(-c2cccc(NC(=O)C3CCN(CCCn4cccn4)CC3)c2)c1 | -11% | -17%
COc1cc(NC(=S)NC(=O)c2ccc(F)cc2)ccc1NC(=O)c1ccco1 | -11% | -10%
O=C(Oc1ccccc1N1CCOCC1)c1sccc1Br | -11% | -7%
CS(=O)(=O)N(CCc1ccccc1)CC(=O)N1CCN(c2ccccc2F)CC1 | -16% | -22%
CN(C)S(=O)(=O)c1cccc(NC(=O)C2Cc3ccccc3CN2C(=O)c2ccco2)c1 (stereo not drawn) | 0% | -15%
CCOCC(O)CS(=O)Cc1ccccc1 (stereo not drawn) | -5% | -11%
Cc1nc(Nc2cccc(F)c2)c2oc3ccccc3c2n1 | -13% | i
CN(C(=O)c1ccno1)c1nnc(-c2cccnc2)s1 | -25% | -25%
O=S(=O)(NCCCc1ccccc1)c1ccc(Cl)cc1 | 0% | -8%
COc1ccc(C2C([N+](=O)[O-])=C(C)N(C)C(=O)N2C)cc1OC (stereo not drawn) | -10% | -19%
CCOC(=O)C1=C(C)N(c2ccccc2)C(=O)/C1=C\c1cccs1 | 2% | -2%
CCOC(=O)c1ccc(OC(=O)c2cn(-c3ccc(C)cc3)c(=O)c3ccccc23)cc1 | -13% | -7%
CCN(CC(=O)Nc1c(F)cccc1F)C(=O)Cc1csc(-c2ccc(OC)c(OC)c2)n1 | -15% | i
COc1cccc(C(=O)OCC(=O)NC2CCCc3ccccc32)c1O (stereo not drawn) | -10% | -8%
COc1ccc(C(=O)CC(=O)C(=O)NCCc2cccc(C)c2)cc1 | -6% | -16%
COc1cc2c(cc1NC(=O)c1cncc(Br)c1)oc1ccccc12 | -7% | 0%
Cc1ccc(-c2csc(C3=C(O)CN(NC(=O)c4ccco4)C3=N)n2)cc1 | -5% | i
O=C1c2ccccc2C(=O)c2c1cccc2N1CCCC1 | -1% | i
CCN(CC)S(=O)(=O)c1cc(C(=O)OCC(=O)Nc2c(F)cccc2F)ccc1F | -3% | i
CN1CCc2c(sc(N)c2C(=O)O)C1 | -1% | -3%
Nc1ccc(Cc2ccc(N)cc2)cc1 | -6% | i
CCc1nnc(NC(=O)CCS(=O)(=O)c2ccc(C)cc2)s1 | -15% | u
COc1cc(C(=O)NC2CCN(CC(=O)NC3CCCCC3C)CC2)cc(OC)c1OC (stereo not drawn) | 4% | i
O=C(N/N=C/c1c(O)ccc2ccccc12)c1ccc(CO)nc1 | -20% | u
COc1ccc(CNc2oc(-c3ccc(COc4ccccc4C)o3)nc2C#N)cc1 | u | u
O=C(Nc1cccnc1)c1ccccc1Cl | -10% | -11%
CC12CCC(C(=O)Nc3cccc(Cl)c3Cl)([C@H](Br)C1=O)C2(C)C (stereo partly drawn) | -12% | u
Nc1nncn1C(=O)c1ccc(Cl)cc1Cl | -7% | 14%
O=C(NCCC1=CCCCC1)C1CCN(Cc2cnn(-c3ccccc3)c2-n2cccc2)CC1 | u | x
Cc1ccc(N=C2NC(=O)/C(=C/C=C/c3ccco3)S2)cc1 | 12% | -18%
CCC(/C=C/C(C)C1CCC2C3CCC4=CC(=O)CC[C@@]4(C)C3CC[C@@]12C)C(C)C (stereo partly drawn) | -28% | -20%
CCOC(=O)N1CCN(C(=O)c2c[nH]c3ccc(S(=O)(=O)N(C)c4ccc(OCC)cc4)cc3c2=O)CC1 | -5% | -17%
